# AF4-AF9 inh – inhibitors of AF4 peptide binding to AF9, primary screen, biochemical, AlphaScreen, biotin-AF4 peptide, FLAG-AF9, single point; Protein AF-9 (Homo sapiens), P42568; inhibition, % at 10 µM; 350,000 tested, 0.47% active;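 active = every replicate reaching a set inhibition limit, whatever the replicate mean, cut at about 25% in these data; inconclusive = mean inhibition reaches that limit but some replicates miss it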;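 note: 0% = plate neutral control median and 100% = total signal loss; the record names both 10 and 1 µM as test concentration; the first replicate is given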
# FGF22 binding – binders of human FGF22 protein, primary screen, FGF22 synaptogenesis inhibitor project, biophysical, thermal shift, single point. Fibroblast growth factor 22 (Homo sapiens), Q9HCT0. recombinant FGF22 thermal shift, SYPRO orange fluorescence; percent of sucrose octasulfate shift, DMSO zero. calls only at 9.99 µM. 340,000 tested, 1.5% active;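 active = melting point raised past a set limit in the mean and every replicate; inconclusive = no clear call; three in four hits are not shown here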
# Target sequence (Q9HCT0 whole entry, looked up): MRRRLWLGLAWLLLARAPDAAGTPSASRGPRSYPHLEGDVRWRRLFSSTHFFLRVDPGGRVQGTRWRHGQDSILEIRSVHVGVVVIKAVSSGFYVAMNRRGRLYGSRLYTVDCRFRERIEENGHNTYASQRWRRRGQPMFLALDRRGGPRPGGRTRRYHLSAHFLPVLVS
# Ecoli rRNA inh – reduced GFP signal of wild-type E. coli, primary screen, bacterial rRNA inhibitor project, GFP/RFP fluorescence, OD600, single point; E. coli WT GFP vs humanized-ribosome RFP mutants, 24 h; hits give low values; DMSO median 0, no signal -100; GFP signal change (wild-type ribosome), % (concentration not given with the values); 350,000 tested, 1.6% active; AID 720706, 2013;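 active = significant combined selectivity score with lowered wild-type GFP, culture density cut under 30%, mutant RFP and density less affected; inactive = any of these conditions unmet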; note: one replicate is shown; some compounds called inactive have numbers as strong as hits
# T cruzi repl – inhibitors of intracellular T. cruzi growth, primary screen, luminescence, NIH3T3 host cells. T. cruzi beta-gal in NIH3T3, 90 h. inhibition, % (concentration not given with the values). 300,000 tested, 1.4% active;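 active = mean inhibition across valid replicates above about 55%, limit read from the data; inconclusive = mean below that limit but half or more replicates reach it; inactive = mean below it, under half of replicates reach it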;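 note: signal also drops with host cell toxicity which is not excluded here; 0% = plate median of DMSO wells and 100% = zero luminescence signal; higher percent means less beta-gal luminescence so fewer parasites; stock transfer was 50 nL into about 50 µL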
# Ecoli growth – E. coli growth inhibition, primary screen, OD600 | 330,000 tested, 0.21% active | AID 1053175, 2014 | OD600 absorbance (no concentration beside the values) | Escherichia coli growth, 23 h; hits give low values;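 active = OD600 absorbance below the run mean of sample wells minus 3.6 SD, in any replicate, cut at about 0.56 in these data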;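 note: stock transfer was 300 nL into about 60 µL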
# UCH37 DUB inh – inhibitors of human UCH37 deubiquitinase, primary screen, biochemical, Ub-AMC cleavage, fluorescence | Ubiquitin carboxyl-terminal hydrolase isozyme L5 (Homo sapiens), Q9Y5K5 | inhibition, % (concentration not given with the values) | purified proteasome/UCH37 | 330,000 tested, 0.33% active;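 active = mean of two replicates above 20%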;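 note: 0% = compound-free wells with enzyme and 100% = wells lacking proteasome; stock transfer was 100 nL into about 20 µL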
# Target sequence (Q9Y5K5 whole entry, looked up): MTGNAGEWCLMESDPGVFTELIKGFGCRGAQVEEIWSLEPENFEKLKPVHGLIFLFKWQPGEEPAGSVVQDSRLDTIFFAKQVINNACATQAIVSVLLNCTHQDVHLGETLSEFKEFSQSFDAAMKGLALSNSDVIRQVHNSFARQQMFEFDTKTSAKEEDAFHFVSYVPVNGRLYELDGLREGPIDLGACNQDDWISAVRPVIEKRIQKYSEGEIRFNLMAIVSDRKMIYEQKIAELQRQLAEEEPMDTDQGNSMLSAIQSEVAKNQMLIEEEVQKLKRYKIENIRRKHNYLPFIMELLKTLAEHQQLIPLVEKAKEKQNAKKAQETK
#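 Signal – fluorescence, ex 355 nm, em 460 nm · System – Proteasome-bound UCH37 · Input – 0.15 nM proteasome as dispensed · Timing – 30 min preincubation with enzyme, 25 min cleavage at room temperature · Read-out basis – percent inhibition of cleavage signal versus uninhibited and no-proteasome wells · Medium – Tris-HCl pH 7.4 with ATP-MgCl2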
# Beta apoptosis – inhibitors of cytokine-induced beta cell apoptosis, primary screen, luminescence; INS-1E cytokine-induced death, ATP luminescence, 48 h; percent of positive-control rescue, neutral wells zero; protection from apoptosis, % (no concentration beside the values); 300,000 tested, 0.8% active;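 active = all replicates at 75% or more, or half of them and the mean; inconclusive = half reach 75% but not the mean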;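 note: 0% = cytokine-treated negative control wells and 100% = positive control rescue; higher means more ATP so stronger rescue from cytokine killing; wells of about 40 µL received 100 nL stock; the first replicate is given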
# A1 inh – caspase 3/7 activation in MEF A1-2A-BIM cells, primary screen, A1 inhibitor project, cell-based, luminescence, HTS | Caspase-Glo 3/7 luminescence, 3 h; percent of clofoctol response, vehicle zero | caspase activation, % (concentration not given with the values) | 330,000 tested, 0.066% active;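 active = over half of replicate activation scores above 10%, or exactly half above 10 with the replicate mean above 10; inconclusive = replicate mean below 10 yet half the replicates above 10; inactive = over half of replicates below 10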;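 note: wells of about 30 µL received 50 nL stock; many hits fall short of the cut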
# Ecoli rRNA inh OD600 – also measured in Ecoli rRNA inh; calls as there; OD600 change, %; measured here: OD600 growth;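 optical density of the mix in the first replicate; 0 = DMSO median and -100 = no signal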
# Ecoli rRNA inh RFP – second read-out of Ecoli rRNA inh, no call of its own (marks repeat the call); RFP signal change, %; measured here: RFP humanized mutant strains;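 first replicate; 0 = DMSO median and -100 = no signal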
# * marks the source's active call; other numbers are inactive results; i = inactive; ? = inconclusive; · = not tested or not shown; & = joins results of further samples. An excerpt; rates above refer to the full screens.
# Results follow in this order: AF4-AF9 inh | FGF22 binding | Ecoli rRNA inh | Ecoli rRNA inh OD600 | Ecoli rRNA inh RFP | T cruzi repl | Ecoli growth | UCH37 DUB inh | Beta apoptosis | A1 inh
COc1c(O)cc2c(c1O)[C@@H]1O[C@H](CO)[C@@H](O)[C@H](O)C1OC2=O (some centres not stated)
  -10 | i | 9 | 13 | 6.2 | -23 | 0.72 | 0.9 | -5 | -0.5
O=C(O)/C=C/c1ccc(O)cc1
  -2.8 | i | · | · | · | -27 | · | · | -5 | -0.9
CCOC(=O)NNc1nncc2ccccc12
  2.2 | i | · | · | · | · | 0.68 | 1.9 | -2 | 0.6
CCCCOc1ccc(CC(=O)NO)cc1
  -1.1&0.6 | i | · | · | · | 3 | 0.66 | 16 | 1 | -1.1
CC12CCC(=O)C=C1CCC1C2CCC2(C)C1CC[C@]2(O)C(=O)CO (some centres not stated)
  -0.2 | i | -4 | -5 | -2.1 | 3 | 0.67 | 4.1 | 7 | -0.4
CC(C)(CO)C(O)C(=O)NCCCO (configuration not stated)
  -3.6 | i | · | · | · | -18 | 0.69 | 2.2 | -5 | -0.1
O=C(O)CNC(=O)c1ccccc1
  1.9&-1.6 | i | · | · | · | -11 | 0.69 | 0.5 | 3 | -0.2
Nc1ncnc2nc[nH]c12
  -3.2&3.0&6.6 | i | -17 | -34 | 48 | -5&-12&-8 | 0.7&0.74 | -2.9&3.6 | -9&-6&0 | 2.3&2.0&1.0
CCn1cc(C(=O)O)c(=O)c2cc(F)c(N3CCNCC3)nc21
  -4.2 | i | · | · | · | · | 0.059* | -3.6 | · | ·
C[C@@H]1C[C@H]2[C@@H]3C[C@H](F)C4=CC(=O)C=C[C@]4(C)[C@@]3(F)[C@@H](O)C[C@]2(C)[C@@]1(O)C(=O)COC(=O)C(C)(C)C
  0.0 | i | · | · | · | 15 | · | -0.8 | -22 | 0.0
CNc1c2c(nn1C)CCCC2
  1.2&-2.7 | i | 4&-1 | 9&5 | -2.6&-3.3 | -10&-5 | 0.65&0.69 | 4.0&5.5 | 12 | 0.0
COc1ccc(/C=N/NC(=O)c2ccncc2)cc1OC
  -2.5 | i | 11 | 13 | 0.6 | 0 | · | · | -1 | -1.2
CN(C)CCOc1ccccc1Cc1ccccc1
  -2.2 | i | · | · | · | -8 | 0.66 | 4.6 | -7 | -0.4
COC(=O)C1=CO[C@@H](OC2OC(CO)C(O)C(O)C2O)[C@@H]2[C@@H](C)[C@@H](O)C[C@H]12 (some centres not stated)
  -1.2 | i | · | · | · | -12 | 0.71 | 2.0 | -2 | 0.7
COc1cc([C@H]2Oc3cc([C@H]4Oc5cc(O)cc(O)c5C(=O)[C@@H]4O)ccc3O[C@@H]2CO)ccc1O
  9.2 | i | · | · | · | 6 | · | 5.7 | -1 | -0.2
Cn1c(=O)c2c(ncn2CCO)n(C)c1=O
  0.4 | i | 6 | 13 | -1.6 | -16 | 0.71 | 1.3 | 0 | -0.3
CC(=O)Nc1ccccc1
  -3.8 | i | · | · | · | · | 0.7 | -0.1 | · | ·
CCCOC(=O)c1ccc(O)cc1
  -3.0 | i | -1 | -4 | -8.4 | ? | 0.71 | 1.5 | -3 | 0.0
C=C1c2cccc(O)c2C(O)=C2C(=O)[C@]3(O)C(O)=C(C(N)=O)C(=O)[C@@H](N(C)C)[C@@H]3[C@@H](O)[C@H]12
  5.3 | i | · | · | · | 6 | 0.059* | 1.8 | -2 | 0.3
COc1ccc2nc(NC(=O)Nc3ccccc3)sc2c1
  1.0&-4.2 | i | · | · | · | 0 | 0.68 | 2.0 | · | ·

# Single entries from above.
# Value of C=C1c2cccc(O)c2C(O)=C2C(=O)[C@]3(O)C(O)=C(C(N)=O)C(=O)[C@@H](N(C)C)[C@@H]3[C@@H](O)[C@H]12 under A1 inh: 0.3
# Value of CN(C)CCOc1ccccc1Cc1ccccc1 under UCH37 DUB inh: 4.6
# Value of COc1c(O)cc2c(c1O)[C@@H]1O[C@H](CO)[C@@H](O)[C@H](O)C1OC2=O (some centres not stated) under T cruzi repl: -23

# Continued:
# Results follow in this order: AF4-AF9 inh | FGF22 binding | Ecoli rRNA inh | Ecoli rRNA inh OD600 | Ecoli rRNA inh RFP | T cruzi repl | Ecoli growth | UCH37 DUB inh | Beta apoptosis | A1 inh
CCCCC1C(=O)N(c2ccccc2)N(c2ccccc2)C1=O
  1.6&-2.2 | i | -9 | -4 | 5.2 | -7 | 0.7 | 1.0 | -7 | -0.2
O=c1cc(-c2ccc(O)cc2)oc2cc(O[C@@H]3O[C@H](CO)[C@@H](O)[C@H](O)[C@H]3O[C@@H]3OC[C@](O)(CO)[C@H]3O)cc(O)c12
  3.7 | i | -1 | 6 | 0.5 | 12 | · | 3.7 | 2 | 1.6
COc1cc2nc(N3CCN(C(=O)[C@H]4COc5ccccc5O4)CC3)nc(N)c2cc1OC
  2.0 | i | · | · | · | 14 | · | -28 | -1 | 0.0
COc1ccc2ccc(=O)oc2c1
  0.3 | i | · | · | · | 1 | 0.7 | -79 | -3 | 0.9
Cc1cccc(C)c1NC(=O)C1CCCCN1C (configuration not stated)
  -13 | i | 2 | 4 | 2.7 | 8 | 0.67 | -1.4 | 0 | 1.7
O=C(Nc1ccc(C(=O)O)c(O)c1)c1ccccc1
  -4.6 | i | 2 | 6 | -1.5 | 0 | 0.65 | 0.8 | -6 | -11
COC(c1ccccc1)(c1ccccc1)C(Oc1nc(C)cc(C)n1)C(=O)O (configuration not stated)
  -1.0 | i | 1 | 11 | 2.6 | -2 | 0.64 | 2.0 | -2 | 0.1
COc1ccc(CN2CCN(C(c3ccc(F)cc3)c3ccc(F)cc3)CC2)c(OC)c1OC
  6.6 | i | · | · | · | 41 | 0.7 | 6.2 | · | 0.1
NC(N)=NC(=O)Cc1c(Cl)cccc1Cl
  4.4 | i | 4 | 1 | 1.2 | 6 | 0.69 | 0.8 | 12 | -0.2
NNC(=O)CP(=O)(c1ccccc1)c1ccccc1
  -1.4 | i | · | · | · | -9 | 0.69 | 1.7 | -2 | -0.7
COc1ccc(/C=C/C(=O)O)cc1
  -0.7 | i | · | · | · | · | 0.68 | 2.2 | · | ·
Cc1[nH]c2ccccc2c1/C=N/NC(N)=S
  · | i | -1 | 1 | -4.1 | -2 | · | · | -7 | 1.5

# Entries of single compounds as entered above. Values in the order: AF4-AF9 inh	FGF22 binding	Ecoli rRNA inh	Ecoli rRNA inh OD600	Ecoli rRNA inh RFP	T cruzi repl	Ecoli growth	UCH37 DUB inh	Beta apoptosis	A1 inh
# `COc1ccc(/C=C/C(=O)O)cc1` as listed: -0.7	i	·	·	·	·	0.68	2.2	·	·
# `COC(c1ccccc1)(c1ccccc1)C(Oc1nc(C)cc(C)n1)C(=O)O` (configuration not stated) as listed: -1.0	i	1	11	2.6	-2	0.64	2.0	-2	0.1
# `O=c1cc(-c2ccc(O)cc2)oc2cc(O[C@@H]3O[C@H](CO)[C@@H](O)[C@H](O)[C@H]3O[C@@H]3OC[C@](O)(CO)[C@H]3O)cc(O)c12` as listed: 3.7	i	-1	6	0.5	12	·	3.7	2	1.6

# An excerpt from above in order of their number in Ecoli rRNA inh, descending:
SMILES | Ecoli rRNA inh
NC(N)=NC(=O)Cc1c(Cl)cccc1Cl | 4
COC(c1ccccc1)(c1ccccc1)C(Oc1nc(C)cc(C)n1)C(=O)O (configuration not stated) | 1
CCCCC1C(=O)N(c2ccccc2)N(c2ccccc2)C1=O | -9
